VACV Venus inh = inhibitors of vaccinia virus (Venus reporter) | 330,000 compounds, 0.46% hits | Potency, µM (series often up to 36.5 µM), for inactives: top-dose activity change, negative = inhibition, actives largely listed as inhibitors | Vaccinia virus Venus reporter expression, fluorescence; active means well fitted inhibition curve with a large enough effect; inconclusive means small, poorly fitted or top-dose-only effect; inactive means no such curve, though single readings can be large or run the other way; tested in A549 cells; also: nearly all actives have a fitted effect of over 30% in size; inactives centre near -10
VACV mCherry inh = vaccinia inhibition (mCherry reporter); Vaccinia virus mCherry reporter infection, fluorescence; about a quarter of the inactives have no number; Potency, µM (top dose mostly 36.5 µM), inactives show at the highest dose activity change, negative = inhibition, usual class: inhibitors; 310,000 compounds, 0.63% hits; active = well fitted inhibition curve with a large enough effect; inconclusive = small, poorly fitted or top-dose-only effect; inactive = no such curve, though single readings can be large or run the other way; tested in A549 cells; also: nearly all actives have a fitted effect of over 35% in size; inactives centre near -10
* marks the source's active call; other numbers are inactive results; i = inactive; ? = inconclusive; . = no result given; & = joins results of further samples; [ ] = dose if it differs, or a comment. % is scaled to controls: 0 for no effect and ±100 for the full control effect; potency is read from the fitted curve at half-maximal effect.

SMILES	VACV Venus inh	VACV mCherry inh
COc1ccc2c(c1)sc(=N)n2CC(=O)Nc1cc(C)cc(C)c1	-5%	-13%
O=C(O)c1ccccc1NC(=O)N1C[C@H]2C[C@@H](C1)c1cccc(=O)n1C2	-10%	1%
Cc1cc(=O)nc2c3ccccc3n(C(C)C(=O)NCCC(C)C)n12 (stereo unspecified)	10%	12%
Fc1ccc(NC(=S)N2CCCc3ccccc32)cc1	?	-13%[1.46 µM]
CCc1nnc(NC(=O)c2ccc(S(=O)(=O)N3CCCC3)cc2)s1	8%	5%
COc1ccc(-c2nnnn2C(C)C)cc1	-6%	-6%
CC(CCc1ccccc1)NC(=O)COC(=O)CC1CC2CCC1C2 (stereo unspecified)	-3%	-11%
COC(=O)/C(=C\c1ccc([N+](=O)[O-])o1)NC(=O)c1ccccc1	6%	-10%
FC(F)(F)c1cccc(N2CCN(c3nc4ccccc4n4cnnc34)CC2)c1	-16%	-28%
CCCOc1ccc(C(=O)Nc2ccc3oc(-c4ccncc4)nc3c2)cc1	-11%	-9%
CCCn1nnc(NC(=O)COc2ccc(Cl)cc2)n1	-5%	-11%
CC(=O)Nc1ccc(NC(=O)C(C)OC(=O)CNS(=O)(=O)/C=C/c2ccc(C)cc2)cc1 (stereo unspecified)	-5%	-2%
COc1cc(CNC2CCCCCCC2)cc(Cl)c1OC	-19%	-12%
COCCn1c(=O)[nH]c2cc(C(=O)N3CCN(c4cccc(C(F)(F)F)c4)CC3)ccc2c1=O	-19%	i
CC1(C(=O)Nc2nccs2)CCN1C(=O)C1(c2ccccc2)CC1 (stereo unspecified)	-3%	38%[activator]

The last six records of the part before are carried over, then new ones follow.
SMILES	VACV Venus inh	VACV mCherry inh
CCCOc1ccc(C(=O)Nc2ccc3oc(-c4ccncc4)nc3c2)cc1	-11%	-9%
CCCn1nnc(NC(=O)COc2ccc(Cl)cc2)n1	-5%	-11%
CC(=O)Nc1ccc(NC(=O)C(C)OC(=O)CNS(=O)(=O)/C=C/c2ccc(C)cc2)cc1 (stereo unspecified)	-5%	-2%
COc1cc(CNC2CCCCCCC2)cc(Cl)c1OC	-19%	-12%
COCCn1c(=O)[nH]c2cc(C(=O)N3CCN(c4cccc(C(F)(F)F)c4)CC3)ccc2c1=O	-19%	i
CC1(C(=O)Nc2nccs2)CCN1C(=O)C1(c2ccccc2)CC1 (stereo unspecified)	-3%	38%[activator]
C=C(C)COc1cc2oc(=O)c(CC(=O)N3C[C@H]4C[C@@H](C3)c3cccc(=O)n3C4)c(C)c2cc1Cl	-12%	-22%
O=C(COc1ccccc1)N[C@@H]1c2ccccc2CC[C@@H]1OCc1ccccc1	-17%	?
CCOc1ccc(/C=C/C(=O)Nc2ccc3[nH]c(=O)[nH]c3c2)cc1	-9%	-14%
Cn1c(SCC(=O)NCC2CCCO2)nnc1-c1cccc(NC(=O)c2ccccc2F)c1 (stereo unspecified)	3%	-2%
CCCN1C(=O)c2ccccc2NC1c1ccc(C)cc1 (stereo unspecified)	-15%	?
O=C(CCN1C(=O)c2cccc3cccc(c23)C1=O)NCc1cccnc1	-9%	-8%
CCOCCCNC(=O)c1ccc(Cn2c(=O)[nH]c3ccsc3c2=O)cc1	17%	-15%
Cc1ccccc1NC(=O)OCCN1CCN(Cc2ccccc2)CCC1=O	-11%	-5%
CCN(C(=O)COC(=O)c1ccccc1Cc1ccccc1)C1CCS(=O)(=O)C1 (stereo unspecified)	-8%	i
COCCNC(=O)CN(C(=O)CCC(=O)Nc1ccccn1)c1ccccc1F	-3%	0%
O=C(Nc1nc(-c2ccc(S(=O)(=O)N3CCCC3)cc2)cs1)c1cccs1	?	.
COc1cccc(/C=C/C2=CC(C)(C)NC(=S)N2)c1	-30%	-70%
COc1ccc(-n2nnnc2-c2cccnc2)cc1	-11%	-3%
N#CC(c1ccc(Cl)cc1)(c1ncc(C(F)(F)F)cc1Cl)N1CCOCC1 (stereo unspecified)	-1%	-4%
O=[N+]([O-])c1cccc(OCCN2CCC(Cc3ccccc3)CC2)c1	-9%	?

Profiles, quoted from the list.
Entry for O=C(COc1ccccc1)N[C@@H]1c2ccccc2CC[C@@H]1OCc1ccccc1 = VACV Venus inh: -17%; VACV mCherry inh: ?
Entry for C=C(C)COc1cc2oc(=O)c(CC(=O)N3C[C@H]4C[C@@H](C3)c3cccc(=O)n3C4)c(C)c2cc1Cl = VACV Venus inh: -12%; VACV mCherry inh: -22%

The results go on:
SMILES	VACV Venus inh	VACV mCherry inh
COC(=O)C1C(O)=C(C=NCC(C)N=CC2=C(O)C(C(=O)OC)C(C)(C)CC2=O)C(=O)CC1(C)C (stereo unspecified)	-10%	.
CCCCNC(=O)CCCn1c(=O)c2ccccc2n(Cc2c(C)cc(C)cc2C)c1=O	-4%	-5%
CCCN(CCC)C1CCc2cccc(O)c2C1 (stereo unspecified)	-11%&-15%	-9%&-1%
COC(=O)C1=CN(C)C=C(C(=O)OC)C1c1ccsc1	-13%	.
Cc1ccc(C(=O)NC(=S)Nc2ccccc2C(F)(F)F)cc1	-11%	.
O=C(c1ccc(Cl)cc1)N1CCN(c2ccnc3cc(Cl)ccc23)CC1	-29%	?
COc1cccc(-n2nnnc2SCC(=O)NC2CCCCC2)c1	-11%	i
O=C(Nc1ccc(F)cc1)Nc1nnc(-c2ccncc2)s1	-14%	-20%
CCOC(=O)N1CCC(N2Cc3cccc(C(=O)NCc4ccccn4)c3C2=O)CC1	-2%	-10%
CCCOc1ccc(C(=O)N(Cc2ccco2)Cc2ccco2)cc1	-2%	-4%
Cc1cc(O)c(C(c2ccccc2Cl)N2CCN(c3ccccc3)CC2)c(=O)n1Cc1ccco1 (stereo unspecified)	-17%	-15%
Cc1ccc(-n2c(SCC(=O)Nc3ccc4c(c3)OCO4)nc3c([nH]c4ccccc43)c2=O)cc1	-18%	-14%
CC(C)c1nc2c(s1)CCc1onc(-c3cccc([N+](=O)[O-])c3)c1-2	-6%	-4%
OCC[C@@H]1C[C@@H](O)[C@H](O)[C@@]2(OCCc3ccccc32)O1	-4%	i
CCn1nc(-c2ccccc2)c2nc3ccccc3nc21	-17%	.
CCCCCn1cc2c(c1-c1ccccc1Br)c(=O)n(C)c(=O)n2C	-6%	-9%
O=S(=O)(c1ccc(NC(=S)N/N=C/c2ccc(Oc3ccccc3)cc2)cc1)N1CCOCC1	-16%	-22%
CC1(C)C(C(=O)NN2C(=O)c3ccccc3C2=O)C1(C)C	5%	.
O=C(OCC(=O)c1c[nH]c2ccccc12)c1cc(Br)ccc1O	-25%	-12%
C=CCN(Cc1ccc(Br)s1)C(=O)c1ccc(OCc2c(C)noc2C)cc1	-20%	-33%
Cc1ccc(C(=O)/C=C\C(=O)c2ccc(C)cc2)cc1	5%	-11%
COc1ccc(S(=O)(=O)c2c(O)c3ccc(C(=O)NCc4ccc(F)cc4)cc3[nH]c2=O)cc1	1%	-9%
CC1CCCC/C1=N\NS(=O)(=O)c1ccc(Br)cc1 (stereo unspecified)	-8%	-1%
COc1ccc(C(=O)N/N=C/c2ccc(OC(=O)c3cccs3)cc2)cc1	-1%	-11%
COc1cc(C#Cc2c(-c3cncn3C)n(C)c3ccc(-c4cnc(OC)nc4)cc23)cc(OC)c1	?	?
COCCc1nn2c(=O)cc(COC(=O)c3cc(OC)c(OC)c(OC)c3)nc2s1	2%[7.34 µM]	-5%[7.34 µM]
Cc1ccc(C2C(/C=C3/SC(=S)NC3=O)=C(c3cccs3)Oc3ccccc32)cc1 (stereo unspecified)	-21%	-10%
COc1cc2[nH]c(=O)n(CCCCCC(=O)NCCc3c[nH]c4ccccc34)c(=O)c2cc1OC	-17%	-26%
Nc1ccccc1-c1n[nH]c(=S)s1	-3%	-2%
O=C(NCC(=O)N1CCN(Cc2ccccc2)CC1)c1ccc(Br)cc1	-10%	-10%

By substructure: those above containing two or more sulfur atoms
SMILES	VACV Venus inh	VACV mCherry inh
CCc1nnc(NC(=O)c2ccc(S(=O)(=O)N3CCCC3)cc2)s1	8%	5%
O=C(Nc1nc(-c2ccc(S(=O)(=O)N3CCCC3)cc2)cs1)c1cccs1	?	.
O=S(=O)(c1ccc(NC(=S)N/N=C/c2ccc(Oc3ccccc3)cc2)cc1)N1CCOCC1	-16%	-22%
Cc1ccc(C2C(/C=C3/SC(=S)NC3=O)=C(c3cccs3)Oc3ccccc32)cc1 (stereo unspecified)	-21%	-10%
Nc1ccccc1-c1n[nH]c(=S)s1	-3%	-2%

Next entries follow:
SMILES	VACV Venus inh	VACV mCherry inh
CN(C)N1C(N)=C(C#N)C(c2ccc(F)cc2)C2=C1CCCC2=O (stereo unspecified)	-4%	i
Cc1ccc(-c2nnc(Nc3ccc(O)cc3)c3ccccc23)cc1S(=O)(=O)NC(C)(C)CO	?	?
CCCc1ccc(OCC(=O)Nc2sc3c(c2C(=O)OCC)CCC(C(C)(C)C)C3)cc1 (stereo unspecified)	-2%	-6%
C[C@H](CO)N1C[C@H](C)[C@@H](CN(C)S(=O)(=O)c2cn(C)cn2)Oc2ccc(NC(=O)Cc3ccccc3)cc2C1=O	-6%	-9%
CCc1nc2c(OCc3cc(Cl)cc(Cl)c3)cccn2c1N(C)C(=O)CC(C)C	-13%	-1%
COc1ccc(S(=O)(=O)N2CCCC(C(=O)NCc3cccnc3)C2)cc1C (stereo unspecified)	-13%	0%
Cc1cc(C)c(C)c(OCCCOc2cccc3cccnc23)c1	7%	-12%
COc1ccc(CCC(C(O)C(F)(F)F)S(=O)c2ccccc2)cc1 (stereo unspecified)	-10%	i
N#Cc1c(-c2ccccc2)nc(SCC(=O)N(c2ccccc2)c2ccccc2)[nH]c1=O	-6%	i
CN(C)c1nc2c(c(=O)[nH]c(=O)n2C)n1CCCc1ccccc1	-14%	i
CCC(=O)Oc1ccc(C(=O)Nc2cccc(C(=O)NC(C)(C)C)c2)cc1	-9%	-8%
CCCCNC(=O)C1C(c2ccc(C(F)(F)F)cc2)=Nc2ccccc2N1C(=O)c1cccc(C(F)(F)F)c1 (stereo unspecified)	-24%	-27%
O=C(NCc1nnnn1-c1ccc(F)c(F)c1)c1ccc2c(c1)OCO2	-4%	-14%
COc1ccc(CCNC(=O)/C(=C/c2cccnc2)NC(=O)c2ccccc2)cc1OC	-13%	-2%
COC(=O)C1CCN(C(=O)COC(=O)CC(NC(N)=O)c2ccc(Cl)cc2)CC1 (stereo unspecified)	-2%	-9%
CCOc1cc(C(=O)OCC(=O)Nc2cccc(S(=O)(=O)NC3=NCCCCC3)c2)cc(OCC)c1OCC	-20%	-5%
Cc1ccc(-c2nc(CS(=O)CC(=O)N3CCN(c4cccc(Cl)c4)CC3)c(C)o2)cc1 (stereo unspecified)	-22%	-21%
Cc1cccc(-c2nnc(SCC(=O)Nc3ncccn3)n2C)c1	-25%	-14%
COc1ccc2nc(NC(=O)C3COc4ccccc4O3)sc2c1 (stereo unspecified)	-10%	-28%
COc1ccc(NC(=O)c2sc(=O)n(Cc3ccc4ccccc4c3)c2C)cc1OC	-5%	21%
N#Cc1c(N)nc2c3c(sc(=N)c2c1N)NC(=O)CC3c1c(F)cccc1Cl (stereo unspecified)	-18%	?
Cc1[nH]c2ccccc2c1/C=C/C(=O)c1ccncc1	-29%	-25%
CNC(=O)NNC(=O)c1nc(-c2ccccc2)c(C)o1	-18%	i
CC(=O)Nc1nonc1-c1nnc(SCC(=O)Nc2ccccc2)n1-c1ccccc1	-7%	0%
CC(C)OCCCNC(=O)C(=O)Nc1c2c(nn1-c1ccccc1)CS(=O)(=O)C2	-5%	-9%
Cn1c(=O)[nH]c(=O)c2c1nc(N1CCCCCC1)n2CCSc1nc2ccccc2o1	-17%	-20%
O=C(COC(=O)/C=C/c1ccccc1Cl)NCc1ccco1	4%	2%
O=C(CSc1nnc(-c2cccc(F)c2)o1)N1CCOCC1	-3%	0%
N#Cc1ccc(CSc2nnc(-c3ccncc3)o2)cc1	?	-26%
COc1ccc(CC(=O)Nc2ccc(C(=O)Nc3ccccc3C(=O)O)cc2)cc1OC	-7%	i
CC(c1ccncn1)N(C)C(=O)c1ccc2oc(Cc3ccccc3)nc2c1 (stereo unspecified)	-12%	-12%
CCOC(=O)CSc1nc(-c2ccc(Cl)cc2)cc(C(F)(F)F)c1C#N	9%	-3%
CC(=O)OC/C=C(\C)CCC=C(C)C	4%	16%
O=C(OC1CCOC1=O)C1CCN(S(=O)(=O)c2ccc(Cl)c(C(F)(F)F)c2)CC1 (stereo unspecified)	-15%	i
Cn1c(=O)n(C)c2cc(NS(=O)(=O)c3ccc(Br)cc3)c(NCc3ccccc3)cc21	-2%	-9%
COc1ccccc1C(=O)NC(=O)COC(=O)CN1C(=O)NC2(CCCCC2C)C1=O (stereo unspecified)	-4%	i
COCc1cc(C)nc(SCC[N+](C)(C)CC(=O)c2ccccc2)c1C#N	-7%	i
COc1ccc(-n2c(C)cc(/C=C3\C(=O)NN(c4ccccc4)C3=O)c2C)cc1	-6%	-6%
Cc1ccc(Cn2cc(CN3CC(N4CCN(Cc5cccc(C)c5)CC4)CS3(=O)=O)nn2)cc1 (stereo unspecified)	-11%	3%
CC(C)(C)N1CCC1CN (stereo unspecified)	3%	-15%
N#Cc1ccccc1NC(=O)COC(=O)CCc1ccc(S(=O)(=O)N2CCCCC2)cc1	-2%	i
COc1ccccc1CC(=O)Nc1ccc2c(c1)C(=O)NC2=O	-10%	i

Individual results from the entries so far.
For VACV Venus inh, `COc1ccccc1CC(=O)Nc1ccc2c(c1)C(=O)NC2=O` is listed with -10%
For VACV Venus inh, `CC(c1ccncn1)N(C)C(=O)c1ccc2oc(Cc3ccccc3)nc2c1` (stereo unspecified) is listed with -12%
For VACV Venus inh, `CCOC(=O)CSc1nc(-c2ccc(Cl)cc2)cc(C(F)(F)F)c1C#N` is listed with 9%
For VACV Venus inh, `COCc1cc(C)nc(SCC[N+](C)(C)CC(=O)c2ccccc2)c1C#N` is listed with -7%
